TRPML1 agonist: human mucolipin-1 channel agonism; 0.12% of 410,000 active; AID 624414; activation, % (test concentration not listed); TRPML1-expressing cells, Ca2+ dye fluorescence, FDSS; host cell line not named in the record; reference of the full effect not given here; in the data active = activation above about 50%; inconclusive = about 30% to 50%; inactive = below about 30%; note: 0% is about no effect; the text of the record puts the active cut at 80%
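Kinetic FDSS Ca2+ read in Tet-induced TRPML1-DL cells (ABD Ca8 dye plus quencher, 45-90 min RT loading): baseline, then compound, then 110 s agonist window; EC80 agonist 54-4 at 4uM final added afterwards for a 110 s antagonist window.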
PINK1 modulator: PINK1 expression modulation; PINK1 immunofluorescence, high-content cytometry, 24 h; Potency, µM (series often up to 76.6 µM), for inactives: top-dose activation (PINK1 increase), hits mostly activators; 0.2% of 410,000 active; active = well fitted activation curve with a large enough effect; inconclusive = small, poorly fitted or top-dose-only effect; inactive = flat fitted curve, though single readings scatter; cell line not stated here;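 note: potency is the fitted concentration of half-maximal effect; % of control where 0% means no effect; nearly all actives have a fitted effect of over 65% in size; a mitochondrial uncoupler was the plate control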
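Fluorescence from anti-PINK1 antibody, together with nuclear and cell stains, was scanned on a laser-scanning cytometer. Before staining, stable-line cells were incubated 24 hours with compounds at 5 concentrations; primary antibody 12 h at 10 degrees C.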
CtBP-E1A inh: inhibitors of CtBP/E1A interaction; activity change, % (concentration not given with the values); 0.49% of 340,000 active; AlphaScreen GST-E1A/His-CtBP binding, 1536-well; hits give low values; control for the full effect not named in the record; in the data active means activity change below about -65%; inconclusive means about -30% to -65%; inactive means above about -30%; note: % is set by controls: 0 for no effect and ±100 for the full control effect
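Protein mix (5X: 125 nM each GST-E1A, His-CtBP) was incubated with pinned compound 2 h at 37 deg C in dark, in 50 mM Tris pH 8.0 buffer with 300 mM NaCl. Glutathione donor and nickel acceptor beads followed; AlphaScreen signal read after 1 h.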
D2 potentiator: potentiates the human D2 dopamine receptor allosterically | P14416 | AID 624464 | DiscoveRx D2 beta-arrestin cells, luminescence, 90 min; 100% = 57 uM dopamine signal | potentiation, % (concentration not given with the values) | 0.23% of 360,000 active; active = potentiation of 50% or more; inconclusive = 30% to 50%; inactive = 30% or less;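 note: compound concentration not given in the record; tested on top of an EC20 dose of dopamine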
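PathHunter beta-arrestin assay in DiscoveRx D2 cells. Compounds were added with an EC20 of dopamine (50 nM final) for 90 min at 37 deg C. Luminescence was read 1 h after detection reagent, with 57 uM dopamine as the EC100 control.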
Six1-Eya2 blk: blocks human Six1 binding to Eya2. Q15475+O00167. AlphaScreen GST-Six1/His-Eya2 binding, biochemical; hits give low values; control for the full effect not named in the record. activity change, % (test concentration not listed). 0.56% of 360,000 active; in the data active = activity change below about -65%; inconclusive = about -30% to -65%; inactive = above about -30%; note: % is set by controls: 0 for no effect and ±100 for the full control effect; compound concentration not given in the record
Target sequence (O00167 whole entry, looked up): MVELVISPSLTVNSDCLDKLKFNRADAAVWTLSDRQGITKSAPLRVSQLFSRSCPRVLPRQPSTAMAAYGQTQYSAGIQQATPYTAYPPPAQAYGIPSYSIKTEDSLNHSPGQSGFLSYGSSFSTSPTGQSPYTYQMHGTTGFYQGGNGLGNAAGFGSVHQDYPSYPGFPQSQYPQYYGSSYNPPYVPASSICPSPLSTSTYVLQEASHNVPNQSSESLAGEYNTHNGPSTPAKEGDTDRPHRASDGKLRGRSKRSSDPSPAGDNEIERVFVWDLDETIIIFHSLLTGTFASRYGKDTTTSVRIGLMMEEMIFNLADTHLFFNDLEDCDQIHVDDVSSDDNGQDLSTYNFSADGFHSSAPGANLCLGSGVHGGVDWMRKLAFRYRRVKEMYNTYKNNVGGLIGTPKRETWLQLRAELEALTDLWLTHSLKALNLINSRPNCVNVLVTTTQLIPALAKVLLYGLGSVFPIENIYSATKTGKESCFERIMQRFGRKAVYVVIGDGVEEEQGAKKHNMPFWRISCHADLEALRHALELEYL
Target sequence (Q15475 whole entry, looked up): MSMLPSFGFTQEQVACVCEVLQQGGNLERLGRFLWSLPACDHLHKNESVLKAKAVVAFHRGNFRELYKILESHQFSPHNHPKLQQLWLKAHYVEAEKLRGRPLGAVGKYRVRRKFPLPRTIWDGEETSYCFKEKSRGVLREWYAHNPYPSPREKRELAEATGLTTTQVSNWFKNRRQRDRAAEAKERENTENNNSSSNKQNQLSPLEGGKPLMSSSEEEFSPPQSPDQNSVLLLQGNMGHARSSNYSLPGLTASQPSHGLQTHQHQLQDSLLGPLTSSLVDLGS
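AlphaScreen luminescence read after one hour at 37 °C in darkness. Pin-transferred compounds met GST-Six1 and His-Eya2 protein (5X stock 250 nM/500 nM) plus glutathione donor and Ni-chelate acceptor beads (5X, 50 ug/mL).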
D2 agonist: activates the human D2 dopamine receptor; P14416; DiscoveRx PathHunter D2 beta-arrestin, luminescence, 90 min; 100% = 57 uM dopamine signal; activation, % (no concentration beside the values); 0.084% of 360,000 active; AID 624465; in the data active = activation above about 40%; inconclusive = about 15% to 40%; inactive = below about 15%; note: compound concentration not given in the record; the text of the record calls up to 30% inactive
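DiscoveRx PathHunter D2 beta-arrestin cells (2,100/well) attached overnight, then compound-stimulated 90 min at 37 C in HBSS/10 mM HEPES/0.1% Tween-20 buffer; beta-galactosidase complementation read by luminescence after 1 h at ambient temperature. Dopamine 57 uM final (EC100) as control.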
Active calls of the source: *; ? = inconclusive; / = not tested or not shown; [ ] = dose if it differs, or a comment.

SMILES | TRPML1 agonist | PINK1 modulator | CtBP-E1A inh | D2 potentiator | Six1-Eya2 blk | D2 agonist
Clc1ccc(-c2cn3c(n2)SCC3)cc1 | 0.4 | 1.8% | -3 | -5 | -4 | -5.2
CCCCc1ccc(NC(=O)NCc2ccccn2)cc1 | 2.9 | -0.7% | -13 | -19 | -11 | -3.2
Cc1noc(C)c1C(=O)N1CCCC(C(=O)c2cccc(OC(C)C)c2)C1 (stereo unspecified) | -0.3 | -1.6% | 4 | 1 | 1 | -0.6
CS(=O)(=O)c1ccc(Cl)c(NC(=O)c2cccc(N3C(=O)CCC3=O)c2)c1 | 0.7 | 0.6% | 12 | -4 | 0 | -5.8
CC(C)NC(=O)NC(=O)COC(=O)c1cc(S(=O)(=O)N2CCCCC2)ccc1N1CCOCC1 | 0.5 | 0.7% | -21 | -2 | 1 | 0.2
CCc1nc2c(OCc3ccc(Cl)cc3)cccn2c1N(C)C(=O)c1ccc(C)cc1 | -0.7 | 5.3% | -28 | -8 | -9 | -3.9
CCCC(C)C(=O)Nc1nc(C)c(-c2csc(Nc3ccc(Cl)cc3)n2)s1 (stereo unspecified) | 2.0 | 3.2% | 1 | 1 | -5 | -1.8
Cc1ccc(CSc2nnc(SCC(=O)N/N=C/C=C/c3ccco3)s2)cc1 | 1.4 | 7.3% | 4 | -7 | -3 | 1.7
O=C(Cc1ccccc1F)Nc1nc(-c2cccnc2)cs1 | -0.2 | -0.2% | / | -4 | -4 | 2.6
CC(O)(c1ccc(F)c(F)c1)c1nc(-c2ccoc2)cs1 (stereo unspecified) | 0.1 | 12% | 1 | -15 | -3 | -1.8
Cc1cnc(CNC(=O)C2(C)CCCN2CC(C)C)cn1 (stereo unspecified) | -0.3 | 1.0% | -1 | 0 | 7 | -1.9
Cn1cccc1C(=O)NC1CCCCCC1 | -0.2 | 1.7% | / | -9 | -2 | -3.7
COc1ccc2[nH]c(=S)[nH]c2c1 | -1.0 | 2.0% | -5 | -47 | 0 | -2.9
CSc1cccc(NC(=O)CN2C(=O)COc3ccc(S(=O)(=O)N4CCOCC4)cc32)c1 | 1.1 | 1.2% | / | -5 | -1 | 1.9
COc1cc(OC)c(C2C(C(=O)O)c3ccccc3C(=O)N2C)cc1OC (stereo unspecified) | 0.2 | -2.8% | 6 | 1 | 4 | -3.9

A draw from above in order of count of non-hydrogen atoms, lowest first.
SMILES | TRPML1 agonist | PINK1 modulator | CtBP-E1A inh | D2 potentiator | Six1-Eya2 blk | D2 agonist
COc1ccc2[nH]c(=S)[nH]c2c1 | -1.0 | 2.0% | -5 | -47 | 0 | -2.9
Clc1ccc(-c2cn3c(n2)SCC3)cc1 | 0.4 | 1.8% | -3 | -5 | -4 | -5.2
Cn1cccc1C(=O)NC1CCCCCC1 | -0.2 | 1.7% | / | -9 | -2 | -3.7
Cc1cnc(CNC(=O)C2(C)CCCN2CC(C)C)cn1 (stereo unspecified) | -0.3 | 1.0% | -1 | 0 | 7 | -1.9
O=C(Cc1ccccc1F)Nc1nc(-c2cccnc2)cs1 | -0.2 | -0.2% | / | -4 | -4 | 2.6
Cc1noc(C)c1C(=O)N1CCCC(C(=O)c2cccc(OC(C)C)c2)C1 (stereo unspecified) | -0.3 | -1.6% | 4 | 1 | 1 | -0.6
Cc1ccc(CSc2nnc(SCC(=O)N/N=C/C=C/c3ccco3)s2)cc1 | 1.4 | 7.3% | 4 | -7 | -3 | 1.7
CCc1nc2c(OCc3ccc(Cl)cc3)cccn2c1N(C)C(=O)c1ccc(C)cc1 | -0.7 | 5.3% | -28 | -8 | -9 | -3.9
CSc1cccc(NC(=O)CN2C(=O)COc3ccc(S(=O)(=O)N4CCOCC4)cc32)c1 | 1.1 | 1.2% | / | -5 | -1 | 1.9
CC(C)NC(=O)NC(=O)COC(=O)c1cc(S(=O)(=O)N2CCCCC2)ccc1N1CCOCC1 | 0.5 | 0.7% | -21 | -2 | 1 | 0.2

Additional results follow.
SMILES | TRPML1 agonist | PINK1 modulator | CtBP-E1A inh | D2 potentiator | Six1-Eya2 blk | D2 agonist
Cn1c(C(=O)N[C@@H](Cc2ccccc2)C(=O)O)cc2cc(F)ccc21 | 1.2 | -1.6% | 2 | -3 | 1 | -1.9
CCCCCC1CC(COc2ccccc2)OC1=O (stereo unspecified) | 1.6 | 1.0% | 26 | -1 | 6 | -0.2
CC(=O)Nc1ccc(SCC(=O)N(CCC#N)c2ccc(C)cc2)cc1 | 1.2 | -2.7% | -2 | -3 | 2 | 0.5
CCN(CC)C(=O)Oc1ccc(Br)cc1C(=O)Nc1ccc(F)c(Cl)c1 | 1.0 | 1.4% | 8 | -16 | 2 | -4.0
COc1ccc(C(=O)c2ccc(CC(=O)O)s2)cc1 | 0.4 | -0.6% | / | -9 | 4 | -0.2
CC1Cc2[nH][nH]c(=O)c2C(C2CC2)O1 (stereo unspecified) | 0.0 | 1.1% | 3 | / | -3 | /
COC(=O)c1ccncc1N | -0.7 | 0.7% | -3 | -8 | 1 | -4.6
COc1cccc(C2CC(C(F)(F)F)n3nc(C(=O)Nc4c(C)n(C)n(-c5ccccc5)c4=O)cc3N2)c1 (stereo unspecified) | -0.2 | 3.3% | 5 | 0 | 4 | 0.5
COc1ccc(C2c3ccc(O)cc3Oc3ncn4nc(-c5ccncc5)nc4c32)cc1OC (stereo unspecified) | 0.9 | 11% | 0 | -7 | -14 | -1.3
O=C(CSc1n[nH]c(-c2ccccc2)n1)N1CCCC1 | 1.5 | 0.9% | -1 | -3 | -4 | -0.9
Cc1cc(/C=C2/NC(=O)NC2=O)c(C)n1-c1cccnc1 | 1.1 | -0.9% | -8 | -5 | -17 | -1.2
COc1cc(S(=O)(=O)N2CCCCC2)ccc1NC(=O)c1ccc(F)cc1 | 1.3 | 14% | -1 | -10 | 6 | -1.3
CC(NS(=O)(=O)c1ccc(Br)cc1)c1ccccc1 (stereo unspecified) | -0.1 | 6.3% | 12 | -1 | -2 | -0.9
CN(CC(=O)Nc1ccccc1Cl)C(=O)c1ccccc1Sc1ccccc1C#N | 1.0 | -0.2% | 2 | -32 | 0 | -2.2
C=CC[C@@H](CC(=O)N[C@H](CO)Cc1ccccc1)C(=O)N[C@H](COC(=O)[C@@H](CC=C)CC(=O)OC(C)(C)C)Cc1ccccc1 | 1.2 | 4.3% | 0 | 6 | 0 | 2.4
O=C(Nc1ccc(F)cc1)C1CCN(S(=O)(=O)c2cccs2)CC1 | 0.9 | 1.3% | / | -2 | 2 | -4.7
Cc1ccc(NC(=O)CSc2nnnn2-c2ccc3c(c2)OCO3)cc1C | 1.5 | 2.5% | -2 | -12 | 2 | 3.9
CCN(CC)S(=O)(=O)c1cc(C(=O)Nc2cccnc2Cl)ccc1Cl | -0.2 | 1.7% | 8 | 5 | 4 | 4.9
O=C(NCCCN1CCCC1=O)C(=O)NCC1OCCCN1S(=O)(=O)c1cc(F)ccc1F (stereo unspecified) | -0.6 | 0.2% | 2 | -27 | 9 | -4.3
CCN1CCN(C(=O)N2CCOCC2)CC1 | -0.5 | 14% | -2 | -5 | 7 | -4.2
COc1ccc(NC(=S)Nc2ccc3c(c2)c(=O)n(C)n3-c2ccccc2)cc1 | -1.0 | 5.1% | -16 | -3 | -9 | -2.8
O=C(Cn1cnc2c(cnn2-c2ccc(Cl)cc2)c1=O)NC1CCCCC1 | -0.4 | 0.7% | 4 | -5 | 0 | 0.6
COc1cccc(NC(=O)NCCC2=CCCCC2)c1 | -1.3 | -0.9% | / | -13 | 0 | 1.3
O=C(NCc1ccco1)c1ccccc1NS(=O)(=O)c1ccc2c(c1)OCCO2 | 0.3 | -2.9% | -5 | -1 | 0 | 0.5
CSc1ccccc1OCc1cc(C(=O)N2CCN3CCCC3C2)no1 (stereo unspecified) | 0.0 | -2.2% | -2 | -24 | 0 | -3.7
CCNc1nc(NCC)nc(NC(N)=S)n1 | -0.6 | 1.0% | -10 | -20 | 1 | 4.6
Cc1ccsc1C(=O)OCC(=O)NC1CC1 | 0.5 | -0.4% | 5 | -29 | 2 | -6.2
O=C(Cc1csc(-c2cccc(F)c2)n1)Nc1cccc(S(=O)(=O)NC2=NCCC2)c1 | -0.4 | -0.8% | 1 | -12 | -7 | -1.2
COc1ccc(/C=C2\SC(=S)N(CCCC(=O)Nc3cc(C)on3)C2=O)cc1OC | -1.1 | 10µM* | 6 | -5 | 4 | -4.5
CCCn1c(SCC(N)=O)nc2c(c1=O)C1(CCCC1)Cc1ccccc1-2 | -0.4 | 1.1% | -3 | -4 | -15 | -1.4
COc1ccccc1N1CCN(S(=O)(=O)c2ccccc2)CC1 | -0.2 | ? | 1 | -8 | -2 | -0.9
CC(C)(C)NC(=S)NNC(=O)c1ccncc1 | 0.0 | 2.1% | 4 | -13 | 3 | -6.3
COc1ccc(OC)c(C2=Nn3c(nnc3-c3ccco3)SC2)c1 | 2.7 | -2.8% | ? | -11 | ? | -1.6
Cc1nnc(SCc2nnc(-c3ccc(Cl)cc3)o2)n1-c1ccccc1 | 0.6 | -4.8% | -11 | -6 | 1 | -3.0
CCOC(=O)CSc1nnc(-c2ccccc2)o1 | -0.7 | -1.4% | 11 | 24 | 1 | -2.7
CCC(=O)N1CCN(c2ccc(Cl)cc2NC(=S)NC(=O)c2ccco2)CC1 | 0.0 | 2.0% | 3 | 10 | -1 | -0.5
FC(F)(F)c1ccc(N2CCN(Cc3ccc4c(c3)OCO4)CC2)nc1 | 0.1 | 3.6% | 0 | -37 | 3 | -5.3
CCCCn1nnnc1SCC(=O)NCc1ccco1 | 0.0 | 0.9% | / | 18 | -2 | -2.1
O=C(NNC(=O)c1ccccc1OCc1ccccc1)c1ccccc1F | 1.3 | 2.5% | 0 | 5 | 7 | -0.6
O=C(NCC1CCCO1)C(c1cccs1)N(Cc1ccccc1)C(=O)c1ccc(-c2ccccc2)[nH]1 (stereo unspecified) | 0.3 | 0.1% | -23 | -15 | -29 | 0.2
O=C(NCc1cccc(Br)c1)C1CC2Cn3c(nc4ccccc43)C2N1c1ccccc1 (stereo unspecified) | 0.5 | 4.4% | -2 | -15 | -19 | -2.0
CCCc1cc(C(=O)Nc2cnn(Cc3ccc(F)cc3)c2)no1 | / | 2.4% | 0 | 0 | 1 | 0.4
COCCCNC(=S)NNC(=O)c1ccccn1 | -0.4 | 1.3% | -87* | -2 | -93* | 2.5
CCOC(=O)c1cc(NC(=O)N(CC)CC)c(C)nc1C | 0.3 | 2.3%[38.3 µM] | 5 | 4 | 0 | 0.3
CCc1ccc(CCC(=O)Nc2nnc(C)s2)o1 | 0.8 | -3.6%[38.3 µM] | -15 | -11 | -6 | 4.5

Just PINK1 modulator (two entries from above):
Structure	PINK1 modulator
CCC(=O)N1CCN(c2ccc(Cl)cc2NC(=S)NC(=O)c2ccco2)CC1	2.0%
O=C(NNC(=O)c1ccccc1OCc1ccccc1)c1ccccc1F	2.5%

Source: PubChem BioAssay
